Screening data (PubChem BioAssay)
Cruzain inh noDet: inhibitors of Trypanosoma cruzi cruzain without detergent | purified cruzain, Z-FR-AMC fluorescence, no detergent | Potency, µM, without a hit: max response, negative = inhibition, hits mostly inhibitors | 200,000 compounds, 2.3% hits | AID 1476 | P25779;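 also: plate controls were enzyme without inhibitor for no effect and buffer without enzyme for full effect; nearly all actives have a fitted effect of over 40% in size; top concentration of the series not given in the record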
Target sequence (P25779 123-467 limits assumed): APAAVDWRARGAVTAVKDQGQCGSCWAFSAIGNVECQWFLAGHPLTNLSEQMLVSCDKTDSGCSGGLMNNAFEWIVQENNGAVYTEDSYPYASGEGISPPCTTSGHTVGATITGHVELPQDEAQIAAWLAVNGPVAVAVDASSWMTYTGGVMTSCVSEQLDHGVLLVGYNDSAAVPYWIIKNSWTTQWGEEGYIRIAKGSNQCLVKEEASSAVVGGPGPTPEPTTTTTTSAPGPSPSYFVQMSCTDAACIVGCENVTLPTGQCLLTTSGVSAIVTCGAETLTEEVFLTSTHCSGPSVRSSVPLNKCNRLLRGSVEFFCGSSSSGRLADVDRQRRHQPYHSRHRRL
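Detergent-free condition (0.00005% Triton X-100) in acetate buffer pH 5.5 with DTT. 1.5 nM enzyme and compound were pre-mixed 15 min, then 2 uM Z-FR-AMC substrate added; reaction progress from fluorescence change between first and third reads (60 s).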
RE007 growth inh: less growth of the S. pombe RE007 Vpr strain. S. pombe RE007 Vpr strain, BacTiter-Glo ATP luminescence, 24 h; control for the full effect not named in the record. Potency, µM (series often up to 92.2 µM), for inactives: at the highest dose activity change, negative = less growth. 360,000 compounds, 0.21% hits; active = well fitted falling curve with a large enough effect; inconclusive = small, poorly fitted or top-dose-only effect; inactive = no such curve, though single readings can be large or run the other way;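 also: % is scaled to controls: 0 for no effect and ±100 for the full control effect; nearly all actives have a fitted effect of over 50% in size; the assay follows cell death caused by Vpr and the record does not say whether a fall means rescue or toxicity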
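Fission yeast RE007 carrying one integrated HIV-1 vpr copy, seeded at OD 0.01 in PMG+AL medium with 23 nL pinned compound. Grown 24 h at 30 degrees; viability read by BacTiter-Glo luminescence after 5 min.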
NS1 function inh: influenza NS1 inhibition; S. cerevisiae slowed by influenza A NS1, growth recovery by OD600; Potency, µM (doses to about 46.1 µM), inactives show top-dose activity, positive = more growth; 270,000 compounds, 0.4% hits; AID 2326; active means well fitted rising curve with a large enough effect; inconclusive means small, poorly fitted or top-dose-only effect; inactive means no such curve, though single readings can be large or run the other way; also: nearly all actives have a fitted effect of over 50% in size
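OD600 was taken as the measure of yeast growth restored by compound in an NS1-expressing S. cerevisiae strain. Cells had been washed out of glucose medium and diluted 1:100 into galactose -URA medium, pH 6.0.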
Cruzain Triton: cruzain (T. cruzi) inhibition with detergent; purified cruzain, Z-FR-AMC fluorescence, 0.01% Triton; 200,000 compounds, 0.43% hits; P25779; Potency, µM, for inactives: max response, negative = inhibition, most hits filed as inhibitors;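 also: plate controls were neutral wells for no effect and buffer without enzyme for full effect; nearly all actives have a fitted effect of over 40% in size; top concentration of the series not given in the record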
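Purified cruzain (1.5 nM final) was preincubated with compounds for 15 min at room temperature in 100 mM sodium acetate pH 5.5, 5 mM DTT, 0.01% Triton X-100. Reaction started with 2 uM Z-FR-AMC; AMC fluorescence change over 60 s gave activity.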
Marburg entry inh: inhibitors of Marburg virus binding or cell entry; Marburg virus pseudotyped entry inhibition, cell reporter; control for the full effect not named in the record; about a third of the inactives were read at about 46 µM; Potency, µM (highest dose often 37.8 µM), inactives show at the top dose activity change, negative = inhibition, hits mostly inhibitors; 300,000 compounds, 1.8% hits; AID 540276; active = well fitted inhibition curve with a large enough effect; inconclusive = small, poorly fitted or top-dose-only effect, or effect the other way; inactive = flat fitted curve, though single readings scatter; tested in HEK293 cells; about a fifth of its hits are not listed in these tables; also: % is scaled to controls: 0 for no effect and ±100 for the full control effect; luciferase read-out
Lassa entry inh: blocks Lassa virus binding to or entry into cells | Lassa virus pseudotype entry inhibition, cell reporter; control for the full effect not named in the record | AID 540256 | Potency, µM (series often up to 37.9 µM), for the others: at the highest dose activity change, negative = inhibition, usual class: inhibitors | 300,000 compounds, 1.2% hits; active means well fitted inhibition curve with a large enough effect; inconclusive means small, poorly fitted or top-dose-only effect, or effect the other way; inactive means flat fitted curve, though single readings scatter; tested in HEK293 cells; also: % is scaled to controls: 0 for no effect and ±100 for the full control effect; nearly all actives have a fitted effect of over 50% in size; luciferase read-out
SARS PLP yeast: inhibitors of SARS-CoV papain-like protease in yeast | S. cerevisiae expressing SARS-CoV PLpro, growth rescue; control for the full effect not named in the record | Potency, µM (top dose mostly 32.9 µM), for the others: at the highest dose activity, positive = growth rescue | 330,000 compounds, 0.19% hits; active means well fitted rising curve with a large enough effect; inconclusive means small, poorly fitted or top-dose-only effect; inactive means no such curve, though single readings can be large or run the other way; also: 0% is about no effect; nearly all actives have a fitted effect of over 55% in size; growth read by luminescence after 48 h
StopGo reporter: lowers the luciferase signal of an FMDV 2A StopGo reporter; Potency, µM (titrated, usually from 57.9 µM), for the others: top-dose signal change, negative = less light; human cells with a luciferase reporter of 2A StopGo recoding; control for the full effect not named in the record; 410,000 compounds, 1.2% hits; active = well fitted falling curve with a large enough effect; inconclusive = small, poorly fitted or top-dose-only effect; inactive = no such curve, though single readings can be large or run the other way; tested in HEK293T cells; also: % is scaled to controls: 0 for no effect and ±100 for the full control effect; nearly all actives have a fitted effect of over 45% in size; luciferase light after 4 h
Starred values were filed as active, the others as inactive; ? = inconclusive; · = not tested or not shown; & = joins results of further samples; [ ] = dose if it differs, or a comment. Unless noted, calls follow the shape of the dose curve; as a rule, active = well fitted curve in the direction sought with a large enough effect; inconclusive = small, poorly fitted or top-dose-only effect, or another doubt; inactive = no such curve, though single readings can be large; an effect the other way counts as inactive or inconclusive. Potency is read from the fitted curve at half-maximal effect.

SMILES	Cruzain inh noDet	RE007 growth inh	NS1 function inh	Cruzain Triton	Marburg entry inh	Lassa entry inh	SARS PLP yeast	StopGo reporter
O=C(Cc1nc2ccccc2[nH]1)N/N=C/c1ccccc1	7%	3%	?	-3.9%	17%	-1%	-3%	18%
CCOC(=O)c1sc2nc(C)nc(SC(C)C(=O)N(C)c3ccccc3)c2c1C (stereo not given)	·	-11%	·	·	?	?	-4%	-17%
CN1CCN(C(=O)C2CCC(=O)N(CCc3cccc(F)c3)C2)CC1 (stereo not given)	·	6%	29%	·	13%	12%	?	-22%
COc1ccc(NS(=O)(=O)c2ccc(C)c(C(=O)NCCCN3CCCC3=O)c2)cc1	·	-11%	·	·	6%	0%	1%	8%
CC(=O)Nc1ccc2nc(CN3CCN(CC=C(C)C)C(CCO)C3)ccc2c1 (stereo not given)	·	2%	10%	·	7%[46.1 µM]	2%	0%	-18%
COc1ccc(C(=O)NCCc2ccc(S(N)(=O)=O)cc2)cc1OC	3%	7%	5%	1.2%	3%	2%	0%	22%
N/C(=N\O)c1ccc(N2CCN(c3ncccc3C(F)(F)F)CC2)nc1	·	-14%	-3%	·	?	8%	0%	7%
Cc1ccc(C(=O)NNC(=O)c2cccc(Br)c2)cc1	·	5%	-6%	·	8%[46.1 µM]	-29%[46.1 µM]	-2%	27%
CC1=NC(C)(C)Cc2c(C)cccc21	·	-19%	·	·	-8%[46.1 µM]	7%[46.1 µM]	0%	16%
COc1cc2nc(NC(=O)c3ccc(S(=O)(=O)N4CCCC4)cc3)sc2cc1OC	-2%	·	·	-0.5%	·	22%[46.1 µM]	·	0%
Cc1ccc(F)cc1NC(=O)CN1C(=O)NC2(CCCc3ccccc32)C1=O (stereo not given)	·	1%	·	·	17%	-5%	5%	-22%
Cc1ccc(CNC(=O)c2ccc3c(O)c(S(=O)(=O)c4ccc(Cl)cc4)c(=O)[nH]c3c2)cc1	3%	·	·	0.4%	·	6%[46.1 µM]	·	-11%
O=C(CCNC(=O)C1CCN(S(=O)(=O)c2ccccc2)CC1)NCc1ccccc1Cl	·	1%	-14%	·	-3%[46.1 µM]	1%[46.1 µM]	-1%	-3%
CC(C)Cc1csc(=S)[nH]1	·	14%	·	·	11%[46.1 µM]	2%[46.1 µM]	·	-19%
COc1ccc(/C=N/NS(=O)(=O)c2ccccc2)cc1OS(=O)(=O)c1ccccc1	-8%	19%	3%	-1.6%	-4%	0%	8%	51%[activator]
COc1ccc(NC(=O)C2CCN(S(C)(=O)=O)CC2)cc1	5%	5%	5%	0.0%	6%	-10%	1%	·
O=C(/C=C/c1c(Cl)cccc1Cl)Nc1ccncc1	-14%	?	-60%	-11%	?	?	-17%	11%
CCOC(=O)c1c(NC(C)=O)sc(/C(C)=N/Nc2ccc(C(=O)O)cc2)c1C	·	13%	-2%	·	?	0%[46.1 µM]	2%	?
Clc1ccc(COc2ccccc2CNCc2cccnc2)cc1	-6%	-3%	-10%	5.5%	?	-25%	5%	?
CN1CCN(C(CNS(=O)(=O)c2ccc(Br)cc2)c2ccc3c(c2)OCO3)CC1 (stereo not given)	·	-2%	·	·	?	-2%	-5%	-3%
COc1ccc(C(=O)Nc2ccc3ccccc3c2)cc1OC	·	3%	-15%	·	2%	?	1%	59%[activator]
Cc1ccc(-n2nnnc2-c2cccnc2)cc1	·	5%	6%	·	5%	·	0%	-7%
CCCCCCCCCCCCCCC(O)C[N+](C)(CCO)CCO (stereo not given)	·	32µM*	·	·	-12%	-4%	·	-21%
O=C(Nc1nc2c(s1)CCCC2)c1ccc(N2C(=O)CCC2=O)cc1	·	-5%	10%	·	15%	9%	·	36%[activator]
Cc1sc2nc(CSc3nnc(Cc4cccs4)n3C3CCCCC3)[nH]c(=O)c2c1C	?	1%	-1%	-11%	-1%[46.1 µM]	-6%	-4%	-3%
COc1ccc(/C=C2\N=C(C)OC2=O)cc1[N+](=O)[O-]	·	2%	3%	·	6%[46.1 µM]	22%	0%	-10%
C=CCn1c(SCC(=O)N2CCOCC2)nc(O)c(Cc2ccccc2)c1=O	1%	9%	0%	0.2%	0%	-5%	-1%	-24%
Cc1ccccc1S(=O)(=O)Cc1ccc(C(=O)NCc2cccs2)o1	-6%	15%	-15%	-0.5%	-23%[46.1 µM]	?	8%	-7%
COC(=O)C(N)CCCN=C(N)N[N+](=O)[O-] (stereo not given)	-14%	·	0%	-7.8%	-17%	·	·	·
Cc1ccc(OC(C)C(=O)N2CCCc3ccccc32)cc1 (stereo not given)	1%	3%	-8%	2.6%	-4%	3%	-5%	5%

Some of these compounds in order of molar mass, lowest first:
SMILES	Cruzain inh noDet	RE007 growth inh	NS1 function inh	Cruzain Triton	Marburg entry inh	Lassa entry inh	SARS PLP yeast	StopGo reporter
Cc1ccc(OC(C)C(=O)N2CCCc3ccccc32)cc1 (stereo not given)	1%	3%	-8%	2.6%	-4%	3%	-5%	5%
CCOC(=O)c1c(NC(C)=O)sc(/C(C)=N/Nc2ccc(C(=O)O)cc2)c1C	·	13%	-2%	·	?	0%[46.1 µM]	2%	?
Cc1sc2nc(CSc3nnc(Cc4cccs4)n3C3CCCCC3)[nH]c(=O)c2c1C	?	1%	-1%	-11%	-1%[46.1 µM]	-6%	-4%	-3%
CN1CCN(C(CNS(=O)(=O)c2ccc(Br)cc2)c2ccc3c(c2)OCO3)CC1 (stereo not given)	·	-2%	·	·	?	-2%	-5%	-3%

Later entries.
SMILES	Cruzain inh noDet	RE007 growth inh	NS1 function inh	Cruzain Triton	Marburg entry inh	Lassa entry inh	SARS PLP yeast	StopGo reporter
Cc1cccc(N(CC(=O)NCc2ccco2)C(=O)CCC(=O)Nc2ccccn2)c1C	·	1%	-14%	·	-16%[46.1 µM]	14%[46.1 µM]	3%	-15%
Cc1ccc(SCc2ccc(C(=O)N3CCCCC3)cc2)cc1	·	-4%	-2%	·	·	·	-2%	13%
CC(=O)Nc1ccc(-c2cc(NC(C)=O)n(-c3ccccc3)n2)cc1	-13%	10%	-2%	5.4%	-15%[46.1 µM]	-11%	0%	-1%
O=C1Nc2ccccc2/C1=C/c1ccccc1F	·	-9%	-42%	·	-8%[46.1 µM]	1%[46.1 µM]	-3%	-10%
CC(=O)c1cccc(NC(=O)C2CCN(S(=O)(=O)c3ccccc3)CC2)c1	-13%&-5%	-4%	-5%	-2.5%&2.6%	16%[46.1 µM]	0%[46.1 µM]	4%	-16%&-22%
NC(=O)c1ccsc1NC(=O)COC(=O)c1ccncc1	·	2%	·	·	3%[46.1 µM]	-1%	0%	-5%
COc1ccc(C2N=C(N)N=C(N)N2c2ccccc2OC)cc1OC (stereo not given)	3%	1%	5%	6.1%	-14%	-13%	3%	-15%
CN=C(Nc1cccc(Cl)c1)SC1CC(=O)N(c2ccc(OC)cc2)C1=O (stereo not given)	·	6%	-3%	·	-14%[46.1 µM]	?	-1%	-12%
COc1ccc(S(=O)(=O)CCC(=O)NCCc2ccc(C)cc2)cc1	-9%	5%	-1%	4.1%	-1%	-2%	-8%	7%
C=C(C)n1c(=O)n(Cc2ccc(C)cc2)c2ccccc21	·	-27%	-46%	·	·	·	-2%	?
Cc1sc2nc(-c3ccncc3)[nH]c(=O)c2c1-c1ccccc1	4%	·	1%	-5.2%	-9%	4%	3%	·
O=C(NCCCN1CCOCC1)c1ccc(Br)cc1	-9%	-19%	3%	0.5%	?	9%	4%	20%
COC(=O)c1sc2nc(-c3ccccc3)nc(N3CCN(C)CC3)c2c1C	-14%	31%	-5%	-6.8%	?	?	3%	-12%
O=C(NCCO)c1ccc(-c2nnc(Nc3ccc(O)cc3)c3ccccc23)cc1	·	-4%	2%	·	·	·	1%	22%
CSc1sc(C(=O)Nc2ccc(F)cc2F)c2c1C=CCC2	·	-8%	-8%	·	-16%[46.1 µM]	-3%	-2%	12%
O=C(Nc1ccncc1)c1c(Cl)cccc1Cl	·	29%	9%	·	·	·	-1%	-2%
COc1ccc(C(=O)NCc2nnc(SCC(=O)N3CCC(C)CC3)o2)cc1	·	21%	·	·	9%	1%	-2%	-9%
COCCN(Cc1ccccc1)C(=O)C1CCN(S(=O)(=O)c2ccc(OC)c(OC)c2)CC1	·	8%	·	·	2%	-8%	-3%	-17%
CN(Cc1ccccc1)C(=O)COC(=O)c1ccc(=O)n(Cc2ccccc2)n1	·	8%	·	·	22%	4%	2%	-16%
O=C(Cn1ncc2c3ccccc3n(Cc3ccccc3F)c2c1=O)N1CCCCCC1	12%	·	·	-0.8%	0%[46.1 µM]	-7%[46.1 µM]	·	-3%
COc1ccc(N2CC(NC(=O)COc3ccc4ccccc4c3)CC2=O)cc1OC (stereo not given)	?	·	·	-3.0%	·	-6%[46.1 µM]	·	-4%
CNC(=O)c1c(NC(=O)c2ccc(S(=O)(=O)N3CCCCC3)cc2)sc2c1CCC2	14%	·	·	-4.7%	·	-18%[46.1 µM]	·	17%
NC(=O)N/N=C(/CCCCCC/C(=N\NC(N)=O)c1ccccc1)c1ccccc1	·	2%	-1%	·	?	?	0%	-26%
N#C/C(=C(/O)CN1CCCCC1)c1nc(-c2ccc(Cl)cc2)cs1	-10%	-8%	17%	-3.3%	2%	14%	6%	·
COc1ccc(C(=O)N2CCCc3ccccc32)cc1OC	·	-14%	-7%	·	4%[46.1 µM]	-21%[46.1 µM]	-1%	-13%
C/C1=C\[C@@H](C)C/C=C/[C@H]2[C@@H]3O[C@]3(C)[C@@H](C)[C@H]3[C@H](Cc4c[nH]c5ccccc45)NC(=O)[C@]32C(=O)/C=C/C(=O)[C@@H]1O	·	-9%	1%	·	·	·	-1%	32µM*
CCOc1ccc2nc(NC(=O)CN3CCN(C)CC3)sc2c1	-6%	-1%	2%	1.0%	?	7%	-7%	9%
Cc1cccc(CSc2nnc3[nH]c(=O)cc(-c4ccccc4)n23)c1	11%	·	·	-2.1%	·	?	·	0%
